Vaccinia stage – Vaccinia orthopox stage-specific inhibition | activity change (mCherry), % (no concentration beside the values) | Vaccinia-infected cells, mCherry/Venus stage reporter fluorescence; hits give low values; some inactives read as strong as hits | 89,000 compounds, 0.01% hits | AID 1053133;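 active means mCherry past -33% and 40 or more points under the early reporter, replicates agreeing; inconclusive means past -33% without that gap or agreement; tested in A549 cells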;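 further: scaled between vehicle wells and reference inhibitor wells; 23 nL library stock went into each well; one replicate is shown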
Vaccinia stage Venus – also measured in Vaccinia stage; calls as there; activity change (Venus), %; measured here: Venus reporter, other viral stage;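 negative = less Venus signal; first of two replicates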
Active calls of the source: *. Only part of the results is shown. The share of hits here may be higher or lower than overall.

How did Cc1ccc(S(=O)(=O)N(C)C[C@H]2OCCCC[C@H](C)Oc3ccc(NS(=O)(=O)c4cn(C)cn4)cc3C(=O)N([C@H](C)CO)C[C@@H]2C)cc1 do in these assays?
Vaccinia stage: 16; Vaccinia stage Venus: 11

What do the screens show for `C[C@H]1CN([C@@H](C)CO)S(=O)(=O)c2ccc(-c3cccc(C#N)c3)cc2O[C@@H]1CN(C)C`?
Vaccinia stage: 14; Vaccinia stage Venus: 8

What do the screens show for `CC(C)CC#Cc1ccc([C@H]2[C@H]3CN(C(=O)c4ccccn4)CC(=O)N3[C@H]2CO)cc1`?
Vaccinia stage: -12; Vaccinia stage Venus: -19

Results for CC(C)NC(=O)N1CC2(C1)[C@@H](c1ccccc1)[C@H](CO)N2C(=O)C1CC1 ?
Vaccinia stage: 19; Vaccinia stage Venus: 18

Results for COc1ccccc1S(=O)(=O)N[C@H]1C=C[C@H](CC(=O)N2CCCCC2)O[C@@H]1CO ?
Vaccinia stage: 9; Vaccinia stage Venus: 16

Results for CN(C)CCCNC(=O)C[C@H]1CC[C@H](NC(=O)c2ccccc2F)[C@H](CO)O1 ?
Vaccinia stage: 0; Vaccinia stage Venus: 17

What do the screens show for `Cc1noc(C)c1NC(=O)Nc1ccc2c(c1)C(=O)N([C@@H](C)CO)C[C@H](C)[C@@H](CN(C)S(=O)(=O)c1cccs1)O2`?
Vaccinia stage: 7; Vaccinia stage Venus: 1

How did O=C(NC1CCCCC1)N[C@H]1CC[C@H](CCNS(=O)(=O)c2ccc(F)cc2)O[C@H]1CO do in these assays?
Vaccinia stage: -12; Vaccinia stage Venus: -5

What do the screens show for `C[C@@H]1CN([C@H](C)CO)C(=O)c2cc(C3=CCCCC3)cnc2O[C@@H]1CN(C)S(=O)(=O)c1cn(C)cn1`?
Vaccinia stage: 11; Vaccinia stage Venus: 10

How did O=C(N[C@@H]1CC[C@H](CCn2cc(C3(O)CCCC3)nn2)O[C@H]1CO)c1ccccc1F do in these assays?
Vaccinia stage: 6; Vaccinia stage Venus: 4

Structural class, the compounds so far with a carbonyl joined to an NH by a bond outside any ring (5)
Results for CC(C)NC(=O)N1CC2(C1)[C@@H](c1ccccc1)[C@H](CO)N2C(=O)C1CC1 ?
Vaccinia stage: 19; Vaccinia stage Venus: 18

Results for CN(C)CCCNC(=O)C[C@H]1CC[C@H](NC(=O)c2ccccc2F)[C@H](CO)O1 ?
Vaccinia stage: 0; Vaccinia stage Venus: 17

What do the screens show for `Cc1noc(C)c1NC(=O)Nc1ccc2c(c1)C(=O)N([C@@H](C)CO)C[C@H](C)[C@@H](CN(C)S(=O)(=O)c1cccs1)O2`?
Vaccinia stage: 7; Vaccinia stage Venus: 1

How did O=C(NC1CCCCC1)N[C@H]1CC[C@H](CCNS(=O)(=O)c2ccc(F)cc2)O[C@H]1CO do in these assays?
Vaccinia stage: -12; Vaccinia stage Venus: -5

How did O=C(N[C@@H]1CC[C@H](CCn2cc(C3(O)CCCC3)nn2)O[C@H]1CO)c1ccccc1F do in these assays?
Vaccinia stage: 6; Vaccinia stage Venus: 4

(continued)
Results for Cc1noc(C)c1NC(=O)N(C)C[C@H]1OCCCC[C@@H](C)Oc2ccc(NC(=O)c3ccccc3)cc2C(=O)N([C@@H](C)CO)C[C@H]1C ?
Vaccinia stage: 30; Vaccinia stage Venus: 10

What do the screens show for `C[C@@H]1CN([C@@H](C)CO)C(=O)c2cc(-c3cccnc3)cnc2O[C@@H]1CN(C)C`?
Vaccinia stage: 24; Vaccinia stage Venus: 10

How did CN(C)CCCNC(=O)C[C@H]1CC[C@H]2[C@@H](COC[C@H](O)CN2C(=O)c2ccncc2)O1 do in these assays?
Vaccinia stage: 21; Vaccinia stage Venus: 15

Results for O=C(O)C[C@H]1C[C@H]2c3cc(NC(=O)Nc4ccccc4F)ccc3O[C@H]2[C@H](CO)O1 ?
Vaccinia stage: 5; Vaccinia stage Venus: 6

What do the screens show for `COc1ccc(S(=O)(=O)N(C)C[C@H]2Oc3ccc(NC(=O)c4ccncc4)cc3C(=O)N([C@@H](C)CO)C[C@H]2C)cc1`?
Vaccinia stage: 5; Vaccinia stage Venus: 16

Results for C[C@@H]1CCCCO[C@H](CN(C)C)[C@@H](C)CN([C@@H](C)CO)C(=O)c2cc(NC(=O)Nc3ccccc3)ccc2O1 ?
Vaccinia stage: -7; Vaccinia stage Venus: -3

What do the screens show for `C[C@@H]1CCCCO[C@@H](CN(C)C(=O)Nc2ccc(C(F)(F)F)cc2)[C@@H](C)CN([C@H](C)CO)C(=O)c2cc(NC(=O)Nc3ccc(F)cc3)ccc2O1`?
Vaccinia stage: -5; Vaccinia stage Venus: -10

How did CCCNC(=O)N1[C@@H]2Cn3c(cccc3=O)[C@H]1[C@@H](C(=O)N1CCC(Cc3ccccc3)CC1)[C@@H]2CO do in these assays?
Vaccinia stage: 9; Vaccinia stage Venus: 1

Results for C[C@@H]1CCCCO[C@H](CN(C)Cc2ccccc2)[C@@H](C)CN([C@H](C)CO)C(=O)c2cc(NC(=O)Nc3ccc4c(c3)OCO4)ccc2O1 ?
Vaccinia stage: -16; Vaccinia stage Venus: -9

What do the screens show for `Cc1noc(C)c1S(=O)(=O)Nc1ccc2c(c1)C(=O)N([C@H](C)CO)C[C@@H](C)[C@@H](CN(C)S(=O)(=O)c1ccc(F)cc1)O2`?
Vaccinia stage: 11; Vaccinia stage Venus: 5

What do the screens show for `CNC[C@H]1Oc2ccc(NS(=O)(=O)c3ccc(Cl)cc3)cc2CC(=O)N([C@@H](C)CO)C[C@H]1C`?
Vaccinia stage: 6; Vaccinia stage Venus: 0

Results for Cc1noc(C)c1NC(=O)Nc1ccc2c(c1)C(=O)N([C@H](C)CO)C[C@@H](C)[C@H](CN(C)S(=O)(=O)c1c(C)noc1C)OCCCC[C@@H](C)O2 ?
Vaccinia stage: 20; Vaccinia stage Venus: 11

Results for Cc1ccc(S(=O)(=O)N[C@@H]2CC[C@H](CCn3cc(C4CC4)nn3)O[C@H]2CO)cc1 ?
Vaccinia stage: -2; Vaccinia stage Venus: -6

Results for CC(C)NC(=O)N[C@@H]1CC[C@H](CC(=O)NCc2ccc(Oc3ccccc3)cc2)O[C@@H]1CO ?
Vaccinia stage: -7; Vaccinia stage Venus: -1

Results for COCC(=O)N1CC[C@@H]2[C@@H](CO)Nc3ccc(-c4cccc(C#N)c4)cc3[C@@H]21 ?
Vaccinia stage: 20; Vaccinia stage Venus: 10

How did COc1ccc2c3c([nH]c2c1)[C@H](CO)N(S(C)(=O)=O)CC31CCN(CC2CCOCC2)CC1 do in these assays?
Vaccinia stage: -4; Vaccinia stage Venus: -3

What do the screens show for `COCC#Cc1ccc([C@H]2[C@H](CO)N3C(=O)CN(C(=O)C4CCOCC4)C[C@@H]23)cc1`?
Vaccinia stage: 15; Vaccinia stage Venus: 6

How did CC(C)(C)[S@@](=O)N1Cc2cc(C(=O)N3CCCCC3)nc(-c3cccc(Br)c3)c2[C@H]1CCO do in these assays?
Vaccinia stage: 20; Vaccinia stage Venus: 15

Results for COc1ccc(S(=O)(=O)N(C)C[C@H]2OCCCC[C@H](C)Oc3ccc(NC(=O)Nc4ccc(F)cc4)cc3C(=O)N([C@H](C)CO)C[C@@H]2C)cc1 ?
Vaccinia stage: -2; Vaccinia stage Venus: -3

How did COc1ccc2c3c([nH]c2c1)[C@H](CO)N(C(=O)C1CCOCC1)CC31CCN(Cc2nccs2)CC1 do in these assays?
Vaccinia stage: 14; Vaccinia stage Venus: 4

Results for Cc1ccc(S(=O)(=O)Nc2ccc3c(c2)C(=O)N([C@H](C)CO)C[C@H](C)[C@@H](CN(C)Cc2ccc(C(=O)O)cc2)O3)cc1 ?
Vaccinia stage: 18; Vaccinia stage Venus: -2

What do the screens show for `C[C@@H]1CN([C@H](C)CO)S(=O)(=O)c2ccc(-c3ccccc3)cc2O[C@H]1CN(C)Cc1ccccc1C(=O)O`?
Vaccinia stage: -3; Vaccinia stage Venus: 3

Results for O=C(C[C@@H]1CC[C@H]2[C@@H](COC[C@@H](O)CN2Cc2cccc(-c3ccncc3)c2)O1)N1CCOCC1 ?
Vaccinia stage: 1; Vaccinia stage Venus: -8

How did C[C@@H]1CN([C@H](C)CO)C(=O)c2cc(NC(=O)C3CCCCC3)ccc2O[C@@H](C)CCCCO[C@@H]1CN(C)C(=O)NC1CCCCC1 do in these assays?
Vaccinia stage: 8; Vaccinia stage Venus: 0

What do the screens show for `CCNC(=O)C[C@@H]1C=C[C@@H](NC(=O)C2CCC2)[C@@H](CO)O1`?
Vaccinia stage: 0; Vaccinia stage Venus: 4

How did COCC(=O)Nc1ccc2c(c1)C(=O)N(C)C[C@H](OC)[C@H](C)CN(Cc1ccncc1)[C@@H](C)CO2 do in these assays?
Vaccinia stage: 20; Vaccinia stage Venus: 4

How did COc1ccc(S(=O)(=O)N(C)C[C@@H]2Oc3cc(C#CC4CCCCC4)ccc3S(=O)(=O)N([C@H](C)CO)C[C@@H]2C)cc1 do in these assays?
Vaccinia stage: -3; Vaccinia stage Venus: -5

What do the screens show for `C[C@H]1CCCCO[C@H](CN(C)Cc2ccc3c(c2)OCO3)[C@@H](C)CN([C@@H](C)CO)C(=O)c2cc(NS(C)(=O)=O)ccc2O1`?
Vaccinia stage: -9; Vaccinia stage Venus: -4

How did COc1ccc(CN(C)C[C@@H]2Oc3ccc(NC(=O)Cc4ccccc4)cc3C(=O)N([C@@H](C)CO)C[C@H]2C)cc1 do in these assays?
Vaccinia stage: 0; Vaccinia stage Venus: 10

Results for C/C=C/c1cnc2c(c1)C(=O)N([C@H](C)CO)C[C@@H](C)[C@H](CN(C)S(=O)(=O)c1ccc(C)cc1)O2 ?
Vaccinia stage: 6; Vaccinia stage Venus: 3

How did C[C@H](CO)N1C[C@H](C)[C@@H](CN(C)Cc2ccncc2)Oc2ccc(NC(=O)Nc3ccc4c(c3)OCO4)cc2CC1=O do in these assays?
Vaccinia stage: 13; Vaccinia stage Venus: 5

How did C[C@H](CO)N1C[C@H](C)[C@@H](CN(C)Cc2ccccc2)OCCCC[C@H](C)Oc2ccc(NC(=O)NC3CCCCC3)cc2C1=O do in these assays?
Vaccinia stage: inconclusive

What do the screens show for `C[C@H](CO)N1C[C@H](C)[C@H](CN(C)S(=O)(=O)c2ccccc2)Oc2ccc(NC(=O)c3ccncc3)cc2CC1=O`?
Vaccinia stage: 11; Vaccinia stage Venus: 6

What do the screens show for `CC(C)C#Cc1ccc([C@H]2[C@H](CO)N3C(=O)CN(C(=O)Cc4ccccc4)C[C@@H]23)cc1`?
Vaccinia stage: -9; Vaccinia stage Venus: -3

How did C[C@@H](NC(=O)C[C@@H]1CC[C@H](NC(=O)CN2CCOCC2)[C@@H](CO)O1)c1ccccc1 do in these assays?
Vaccinia stage: 9; Vaccinia stage Venus: 13

Results for CNC[C@H]1OCc2cn(nn2)CCCC(=O)N([C@H](C)CO)C[C@@H]1C ?
Vaccinia stage: 4; Vaccinia stage Venus: 6

Results for O=C(Cc1cccnc1)N1[C@@H](CO)[C@@H]2c3ccccc3NC[C@@H]21 ?
Vaccinia stage: 3; Vaccinia stage Venus: 5

How did COc1ccc(NC(=O)Nc2ccc3c(c2)C(=O)N([C@H](C)CO)C[C@H](C)[C@H](CN(C)S(=O)(=O)c2ccc(Cl)cc2)OCCCC[C@@H](C)O3)cc1 do in these assays?
Vaccinia stage: 20; Vaccinia stage Venus: 8

How did CCCNC(=O)N1C[C@@H](O)COC[C@H]2O[C@H](CC(=O)N3CCCCC3)CC[C@@H]21 do in these assays?
Vaccinia stage: -2; Vaccinia stage Venus: 0

What do the screens show for `COc1ccc(NC(=O)N(C)C[C@H]2OCCCC[C@@H](C)Oc3ccc(NC(=O)c4ccccc4)cc3C(=O)N([C@@H](C)CO)C[C@H]2C)cc1`?
Vaccinia stage: 1; Vaccinia stage Venus: -4

Results for C[C@H]1CN([C@@H](C)CO)S(=O)(=O)c2ccc(C#Cc3cccnc3)cc2O[C@H]1CN(C)C(=O)C1CC1 ?
Vaccinia stage: 0; Vaccinia stage Venus: -3

What do the screens show for `C[C@@H]1CN([C@@H](C)CO)C(=O)c2cc(C#C[C@@H](C)O)cnc2O[C@H]1CN(C)Cc1ccccn1`?
Vaccinia stage: 35; Vaccinia stage Venus: 21

What do the screens show for `CS(=O)(=O)N1[C@@H](C#N)[C@@H](c2ccc(-c3ccccc3F)cc2)[C@@H]1CO`?
Vaccinia stage: -19; Vaccinia stage Venus: -21

What do the screens show for `O=C(Nc1ccc(F)cc1)N[C@@H]1CC[C@@H](CCn2cc(C3(O)CCCC3)nn2)O[C@@H]1CO`?
Vaccinia stage: 6; Vaccinia stage Venus: 0

What do the screens show for `CC(C)NC(=O)Nc1ccc2c(c1)CC(=O)N([C@@H](C)CO)C[C@H](C)[C@H](CN(C)Cc1ccc(Oc3ccccc3)cc1)O2`?
Vaccinia stage: -20; Vaccinia stage Venus: -17

What do the screens show for `CC(=O)N1[C@@H](CO)[C@@H](c2ccccc2)C12CN(C(=O)Nc1ccccc1F)C2`?
Vaccinia stage: 3; Vaccinia stage Venus: 10

What do the screens show for `CCC(=O)N1C[C@@H](C)[C@@H](OC)CN(C)C(=O)c2cc(NC(=O)c3ccc(F)cc3)ccc2OC[C@H]1C`?
Vaccinia stage: -1; Vaccinia stage Venus: -1

What do the screens show for `Cc1noc(C)c1S(=O)(=O)Nc1ccc2c(c1)CC(=O)N([C@H](C)CO)C[C@@H](C)[C@@H](CN(C)Cc1ccc(Cl)c(Cl)c1)O2`?
Vaccinia stage: -32; Vaccinia stage Venus: -16

How did Cc1noc(C)c1NC(=O)Nc1ccc2c(c1)C(=O)N([C@H](C)CO)C[C@H](C)[C@H](CN(C)C(=O)NC1CCCCC1)OCCCC[C@H](C)O2 do in these assays?
Vaccinia stage: 16; Vaccinia stage Venus: 6
